gsp antagonist: antagonists of gsp mutant (McCune-Albright syndrome) | gsp-mutant cells, cAMP HTRF, 30 min; control for the full effect not named in the record | Potency, µM (doses to about 76.9 µM), without a hit: at the top dose activity change, negative = inhibition, actives largely listed as inhibitors | actives 0.4% (n = 340,000) | AID 624288; active = falling curve of any shape with a large fitted effect; inconclusive = falling curve, mostly with a smaller effect; inactive = flat or rising curve; cell line not stated here;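 also: intracellular cAMP measured with PDE inhibitor Ro 20-1724 present during compound exposure; potency is read from the fitted curve at half-maximal effect; % is scaled to controls: 0 for no effect and ±100 for the full control effect; nearly all actives have a fitted effect of over 65% in size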
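Measurement of cellular cAMP by homogeneous time-resolved fluorescence following a 30 min compound exposure at 37C. The PDE inhibitor […] was present throughout; the assay buffer was DPBS with 0.05% BSA and 0.005% Tween 20.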
gsp ag: gsp mutant agonism | gsp mutant cells, cAMP HTRF, 30 min; control for the full effect not named in the record | Potency, µM (series often up to 76.9 µM), without a hit: at the highest dose activation (cAMP increase), most hits filed as activators | actives 0.13% (n = 340,000) | AID 624287; active = well fitted activation curve with a large enough effect; inconclusive = small, poorly fitted or top-dose-only effect, or another doubt; inactive = no such curve, though single readings can be large or run the other way; cell line not stated here;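 also: phosphodiesterase inhibitor Ro 20-1724 added with compounds to block cAMP breakdown; potency is read from the fitted curve at half-maximal effect; nearly all actives have a fitted effect of over 60% in size; about a fifth of the inactives were tested at one dose only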
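Cells in DMEM/10% FBS with G418 were pretreated with compounds in DMSO plus […] (300 uM stock) for 30 min at 37C. cAMP was measured by HTRF (cAMP-d2 plus anti-cAMP antibody-K) after 30 min at room temperature.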
D2 potentiator: positive allosteric modulators of human D2 dopamine receptor; actives 0.23% (n = 360,000); P14416; DiscoveRx D2 beta-arrestin cells, luminescence, 90 min; 100% = 57 uM dopamine signal; potentiation, % (test concentration not listed); AID 624464; active = potentiation of 50% or more; inconclusive = 30% to 50%; inactive = 30% or less;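 also: compound concentration not given in the record; tested on top of an EC20 dose of dopamine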
Target sequence (P14416 whole entry, looked up): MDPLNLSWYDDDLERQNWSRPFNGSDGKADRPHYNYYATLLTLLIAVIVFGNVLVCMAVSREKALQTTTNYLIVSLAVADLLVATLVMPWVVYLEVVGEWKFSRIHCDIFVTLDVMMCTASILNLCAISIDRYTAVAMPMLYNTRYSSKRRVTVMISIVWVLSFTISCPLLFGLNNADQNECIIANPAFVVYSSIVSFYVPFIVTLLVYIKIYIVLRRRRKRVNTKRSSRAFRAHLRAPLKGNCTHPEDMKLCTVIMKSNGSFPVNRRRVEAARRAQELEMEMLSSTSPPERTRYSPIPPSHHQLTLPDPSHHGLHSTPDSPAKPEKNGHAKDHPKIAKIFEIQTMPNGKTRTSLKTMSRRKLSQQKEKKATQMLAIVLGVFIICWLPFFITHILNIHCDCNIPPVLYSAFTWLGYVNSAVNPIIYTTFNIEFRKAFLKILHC
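PathHunter D2 cells, attached overnight at 37 deg C, received compound in DMSO plus dopamine at EC20 (50 nM final) for 90 min at 37 deg C. Beta-arrestin recruitment was read as luminescence after 1 h with detection reagent at ambient temperature.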
Six1-Eya2 blk: inhibitors of human Six1/Eya2 interaction | AlphaScreen GST-Six1/His-Eya2 binding, biochemical; hits give low values; control for the full effect not named in the record | actives 0.56% (n = 360,000) | Q15475+O00167 | activity change, % (test concentration not listed); in the data active = activity change below about -65%; inconclusive = about -30% to -65%; inactive = above about -30%; also: % is scaled to controls: 0 for no effect and ±100 for the full control effect; compound concentration not given in the record
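GST-Six1 + His-Eya2 (5X stock: 250/500 nM); Tris pH 8.0, 300 mM NaCl, 0.05% BSA, 0.02% Tween 20; GSH donor/Ni acceptor beads; 1 h 37 °C dark; AlphaScreen readout.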
CtBP-E1A inh: inhibitors of CtBP/E1A interaction. activity change, % (test concentration not listed). AlphaScreen GST-E1A/His-CtBP binding, 1536-well; hits give low values; control for the full effect not named in the record. actives 0.49% (n = 340,000); in the data active means activity change below about -65%; inconclusive means about -30% to -65%; inactive means above about -30%; also: % is scaled to controls: 0 for no effect and ±100 for the full control effect; compound concentration not given in the record
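In 5 uL wells, 23 nL compound meets equimolar GST-E1A and His-CtBP (5X stock 125 nM each) for 2 h, 37 °C. Beads (5X, 50 ug/mL) then 1 h, 37 °C, dark.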
D2 agonist: human D2 receptor agonism in beta-arrestin assay; DiscoveRx PathHunter D2 beta-arrestin, luminescence, 90 min; 100% = 57 uM dopamine signal; activation, % (concentration not given with the values); actives 0.084% (n = 360,000); in the data active = activation above about 40%; inconclusive = about 15% to 40%; inactive = below about 15%; also: compound concentration not given in the record; the text of the record calls up to 30% inactive
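DiscoveRx PathHunter D2 beta-arrestin cells (2,100/well) attached overnight, then compound-stimulated 90 min at 37 C in HBSS/10 mM HEPES/0.1% Tween-20 buffer; beta-galactosidase complementation read by luminescence after 1 h at ambient temperature. Dopamine 57 uM final (EC100) as control.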
* hit, by the source's call; ? = inconclusive; / = no result given; [ ] = dose if it differs, or a comment.

SMILES	gsp antagonist	gsp ag	D2 potentiator	Six1-Eya2 blk	CtBP-E1A inh	D2 agonist
CCCCCc1ccc(-c2cn(Cc3cccc(OC)c3)nn2)cc1	2.2%	2.2%	-5.2	77.4	43.2	2.9
Cn1c(=O)c2c(nc(NNC(=O)C(F)(F)F)n2C)n(C)c1=O	1.1%	7.2%[15.4 µM]	-5.4	-2.2	9.8	-3.9
CCOC(=O)c1[nH]c(C)c(C(=O)Nc2cccc(Cl)c2C)c1C	5.0%	-2.3%	-2.2	2.1	3.8	1.8
COc1ccc(CCNc2ccc(C(CC(N)=O)NC(=O)c3cc(C)cc(C)c3)cc2[N+](=O)[O-])cc1 (centres undefined)	-0.2%	15.9%	-8.4	-6.3	-12.3	-1.2
O=C1COC(c2ccccc2)C2CCCCN12 (centres undefined)	5.9%	23.6%	-1.3	1.9	-2.3	-0.8
COc1ccc(CNC(=O)CCc2c(C)nc3ncnn3c2C)cc1	-3.6%	4.7%	-3.0	6.4	2.2	-3.6
CCC(=O)N/C(=N/c1nc(C)cc(C)n1)Nc1ccc(C)cc1	-16.1%	-3.2%	-7.1	-1.3	1.5	5.1
COc1ccc(NC(=S)NC(=O)Cc2ccccc2)cc1	-2.0%	-23.1%	1.6	-5.3	-0.9	1.4
O=C(COc1ccc(Br)cc1CNCCc1ccccc1)NCc1ccccc1	3.4%	-79.5%[inhibitor]	-32.5	-1.1	-1.3	2.8
COc1cccc(N2CC(C(=O)Nc3c(C(N)=O)oc4ccccc34)CC2=O)c1 (centres undefined)	3.5%	?	12.9	-2.8	-3.5	-3.0
O=C(OCC(=O)N1CCOCC1)c1cccc(F)c1	6.9%	-21.3%[15.4 µM]	-2.5	-1.4	10.9	-0.4
NC(=O)Cc1ccc(C(=O)c2ccc(Cl)cc2Cl)s1	-3.6%	8.3%	-1.2	-3.6	0.7	1.7
CSc1nnc(-c2ccc(S(=O)(=O)N3CCOCC3)cc2)n1CC1CCCO1 (centres undefined)	7.9%	0.0%	-10.7	5.4	-12.1	1.9
Cc1ccccc1NC(=O)c1cnn(-c2ccccc2)c1C	-1.1%	7.0%[15.4 µM]	-3.6	-5.5	-5.9	-0.8
COc1ccc(C[C@@H]2CN3C(=NC[C@@H]3C)N2C[C@H](C)NC(=O)c2ccc(C)c(Br)c2)cc1	-0.1%	-21.1%	-26.4	-2.7	/	-2.0
Fc1cc(Br)ccc1COc1ccc(-c2nnco2)cc1	-0.7%	26.4%	-2.0	0.5	6.5	-1.5
CCCCNC(=O)CS(=O)Cc1nc(-c2cccs2)oc1C (centres undefined)	9.1%	-12.4%	-5.8	5.2	-3.5	-0.9
Cc1csc(NC(=O)c2ccncc2)n1	-8.7%	?	-6.4	-5.5	-1.3	-6.3
COC(=O)c1ccc(C(=O)OC)c(NC(=O)CS(=O)(=O)Cc2ccccc2)c1	8.1%	-17.3%	-19.2	-6.1	-1.9	-2.8
COc1ccc(C(=O)CN2C3=NCCCN3c3ccccc32)cc1OC	2.2%	13.5%	-14.2	6.1	2.8	-0.4
O=C(COc1ccccc1)N1CCN(C(=O)c2cccs2)CC1	7.0%	0.0%	0.5	10.3	-2.4	-1.7
O=C(NCCOc1ccccc1F)C1CC(=O)N(Cc2ccccc2)C1 (centres undefined)	5.7%	10.1%[15.4 µM]	-10.4	0.8	-8.0	-1.4
COc1ccc2nc(C)cc(SCC(NC(C)=O)C(=O)OC(C)C)c2c1 (centres undefined)	-5.5%	?	-2.5	4.0	2.6	0.3
FC(F)Sc1ccc(NC(=S)NC2CCCCC2)cc1	-14.1%	1.4%	-21.1	1.9	-1.3	-0.2
O=C(CC1(C(=O)O)CCCC1)N1CCOCC1	4.6%	10.0%	-2.5	-1.0	4.9	-0.2
SMILES	gsp antagonist	gsp ag	D2 potentiator	Six1-Eya2 blk	CtBP-E1A inh	D2 agonist
CC(Cc1ccccc1)NC(=O)CN1C(=O)c2ccccc2S1(=O)=O (centres undefined)	10.7%	8.2%	-6.1	0.4	3.1	-1.7
CC(C)CSc1nc2c(=O)[nH][nH]c(=O)c2n1Cc1ccccc1	-13.2%	18.0%	-9.5	3.6	-0.9	-5.1
COc1cc(/C=C(\C#N)c2nc3ccccc3[nH]2)cc(OC)c1O	-5.8%	-18.2%	4.9	?	?	12.4
CCNc1nc(NCC)nc(Nn2cnnc2)n1	8.8%	10.0%	-6.1	3.4	7.0	-1.8
COC(=O)c1cc(C#N)c(Oc2ccc(F)cc2)nc1C	0.6%	?	-14.2	-2.8	9.3	3.1
N#C/C(=C/c1ccc(N2CCCCCC2)o1)c1ccc(Cl)cc1	17.0%	-2.2%	-13.7	-8.6	-6.0	-0.8
CC(=O)Nc1ccc(CN2CCN(CC(C)C)C(CCO)C2)cc1 (centres undefined)	2.8%	5.7%[15.4 µM]	-10.2	4.5	8.2	-1.7
O=C(NCc1ccccc1Cl)C1CCN(S(=O)(=O)c2ccc(-n3cnnn3)cc2)CC1	-34.0%	20.6%[15.4 µM]	-4.5	1.6	-4.2	-1.4
O=C(CSc1nc(O)cc(=O)[nH]1)C1CC1	3.8%	?	-2.8	12.1	-0.5	1.1
CCOc1ncccc1C(=O)NCCc1c[nH]c2ccccc12	12.5%	-35.0%[inhibitor]	-4.0	-4.4	-2.7	?
O=C(c1cccc(OC2CCN(Cc3cccc(OCCO)c3)CC2)c1)N1CCCC1	-1.8%	9.2%	-43.6	-5.5	4.4	-6.9
COc1ccccc1Nc1nc(NCc2ccco2)c2ccccc2n1	-20.5%	-1.9%[15.4 µM]	-18.2	-3.4	-4.8	1.4
CCCCCC(=O)Nc1cc(S(=O)(=O)N2CCCCC2)ccc1N1CCOCC1	3.9%	-5.0%	-7.1	-3.0	-0.8	-5.5
COc1ccc(C2/C(=C(/O)c3ccc(C)cc3)C(=O)C(=O)N2C)c(OC)c1 (centres undefined)	-4.1%	6.7%[15.4 µM]	-6.6	6.0	5.3	-0.6
Cn1c(=O)c2c(nc(NCc3ccco3)n2C)n(C)c1=O	-0.9%	-0.8%	-0.4	-3.9	1.1	-1.1
CCN(CC)S(=O)(=O)c1ccc(C(=O)Nc2ccc(Cc3ccncc3)cc2)cc1	50.1µM*	34.6%	0.6	0.3	-1.6	6.8
COc1cc(Cl)c(C)cc1Nc1ncccn1	-25.2%	-11.1%[15.4 µM]	2.2	-13.6	-13.1	-4.0
Clc1nc(Cl)c2ncn(-c3ccccc3)c2n1	0.9%	7.5%[15.4 µM]	-24.6	?	-7.7	-1.8
CCOc1ccc(C(C)=O)cc1COC(=O)CNC(=O)C12CC3CC(CC(C3)C1)C2	-21.7%	13.1%	-6.3	-0.6	-3.9	-0.3
O=C(NCCCN1CCOCC1)c1ccc(Cl)cc1[N+](=O)[O-]	8.4%	-3.6%	-11.5	0.0	7.0	0.3
CC(NC(=O)c1cnc2n(c1=O)CCS2)c1ccccc1 (centres undefined)	2.4%	11.2%	-18.9	3.0	-1.4	-1.6
CCOC(=O)c1c(CN2CCN(C)CC2)n(-c2ccccc2)c2cc(Br)c(O)cc12	-20.7%	19.5%	-21.7	-3.5	-0.1	-0.5
CCN(CC)C(=O)c1nn(-c2ccccc2)c2c1C1CCC2(C)C1(C)C (centres undefined)	-13.3%	?	-9.2	-4.1	-7.0	1.1
CCOC(=O)c1sc2nc(CSc3ccccc3Cl)[nH]c(=O)c2c1C	7.6%	-31.4%[15.4 µM]	-9.0	11.1	6.0	-2.9
O=C(CSc1n[nH]c(-c2ccncc2)n1)Nc1ccc(Cl)c(C(=O)O)c1	10.6%	12.9%[15.4 µM]	-8.3	-7.9	-4.1	2.2
SMILES	gsp antagonist	gsp ag	D2 potentiator	Six1-Eya2 blk	CtBP-E1A inh	D2 agonist
CC(C)Cn1c(N)c(C=O)c(=O)[nH]c1=O	-8.4%	4.9%[15.4 µM]	1.8	0.0	9.1	-0.6
Cc1noc(C)c1COc1cccc(C(=O)Nc2ccccc2N2CCOCC2)c1	-17.5%	-12.9%[15.4 µM]	3.3	-5.1	-2.3	-5.7
COc1ccc(N2CCN(C(=O)COC(=O)/C=C/c3ccc(OC(F)F)cc3)CC2)cc1	1.6%	-17.4%	13.5	2.2	-0.3	0.4
CCCCOc1ccc(C(=O)CCN2CCOCC2)cc1	5.6%	26.1%[15.4 µM]	-13.3	5.1	19.4	-8.7
CCOc1ccc(-c2ccc(SCC(=O)Nc3nnc(CC)s3)nn2)cc1	8.4%	13.2%[15.4 µM]	3.7	-10.6	10.7	-0.3
COc1ccc(Cc2nnc(NS(=O)(=O)c3ccc(Cl)cc3)s2)cc1OC	-4.4%	4.1%	-7.5	-0.5	-2.6	0.8
COc1ccc(C(=O)C2CCN(CC(=O)Nc3ccccc3F)CC2)cc1	-4.0%	-5.0%	-10.1	1.0	-10.6	2.9
COc1ccc(C(N)=S)c(OC)c1	11.1%	-13.4%	-12.2	-7.1	0.0	-4.1
Oc1cccc2ccc[n+](CC(O)Cn3c4ccccc4c4ccccc43)c12 (centres undefined)	10.1%	5.8%	-25.1	-9.5	1.7	5.8
O=C(OCC(=O)N1CCCC1)c1cccc(Br)c1	4.1%	3.2%[15.4 µM]	-2.3	4.6	-1.6	-0.5
Cc1cc(NC(=O)C(C)C)ncc1NC(=O)CCc1ccccc1	1.5%	3.6%[15.4 µM]	-4.6	3.1	6.0	-0.2
C=CCC1(C#N)C(SC)=NC2=C(C(=O)CC(C)(C)C2)C1c1ccc(Br)cc1 (centres undefined)	1.8%	-34.4%[inhibitor]	-21.4	-6.0	-3.9	-4.8

An excerpt from above in order of molecular weight, largest number first.
SMILES	gsp antagonist	gsp ag	D2 potentiator	Six1-Eya2 blk	CtBP-E1A inh	D2 agonist
COc1ccc(N2CCN(C(=O)COC(=O)/C=C/c3ccc(OC(F)F)cc3)CC2)cc1	1.6%	-17.4%	13.5	2.2	-0.3	0.4
CCOc1ccc(-c2ccc(SCC(=O)Nc3nnc(CC)s3)nn2)cc1	8.4%	13.2%[15.4 µM]	3.7	-10.6	10.7	-0.3
COc1ccc(C(N)=S)c(OC)c1	11.1%	-13.4%	-12.2	-7.1	0.0	-4.1

An excerpt of these results, with values ahead of the structure:
gsp antagonist	gsp ag	D2 potentiator	Six1-Eya2 blk	CtBP-E1A inh	D2 agonist	canonical_smiles
8.4%	13.2%[15.4 µM]	3.7	-10.6	10.7	-0.3	CCOc1ccc(-c2ccc(SCC(=O)Nc3nnc(CC)s3)nn2)cc1
-4.4%	4.1%	-7.5	-0.5	-2.6	0.8	COc1ccc(Cc2nnc(NS(=O)(=O)c3ccc(Cl)cc3)s2)cc1OC
-4.0%	-5.0%	-10.1	1.0	-10.6	2.9	COc1ccc(C(=O)C2CCN(CC(=O)Nc3ccccc3F)CC2)cc1
11.1%	-13.4%	-12.2	-7.1	0.0	-4.1	COc1ccc(C(N)=S)c(OC)c1
10.1%	5.8%	-25.1	-9.5	1.7	5.8	Oc1cccc2ccc[n+](CC(O)Cn3c4ccccc4c4ccccc43)c12 (centres undefined)
4.1%	3.2%[15.4 µM]	-2.3	4.6	-1.6	-0.5	O=C(OCC(=O)N1CCCC1)c1cccc(Br)c1
